# Assay outcomes as filed in PubChem.
# Kir21 block – inhibitors of mouse Kir2.1 inward-rectifier potassium channel. Inward rectifier potassium channel 2 (Mus musculus), P35561. hit rate 0.85% among 310,000. HEK293-Kir2.1, FluxOR thallium flux fluorescence; active compounds read low. B-score at 10 µM;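 active means fluorescence ratio B-score at or below minus 3 SD of library scores, with starting-brightness B-score within 2 SD, cut at about -4.2 in these data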;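 further: channel flux triggered by added potassium and thallium sulfate stimulus; B-score of peak minus minimum fluorescence over baseline after thallium stimulus; more negative B-score means stronger Kir2.1 block with less thallium influx; some compounds called inactive have numbers as strong as hits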
# Target sequence (P35561 whole entry, looked up): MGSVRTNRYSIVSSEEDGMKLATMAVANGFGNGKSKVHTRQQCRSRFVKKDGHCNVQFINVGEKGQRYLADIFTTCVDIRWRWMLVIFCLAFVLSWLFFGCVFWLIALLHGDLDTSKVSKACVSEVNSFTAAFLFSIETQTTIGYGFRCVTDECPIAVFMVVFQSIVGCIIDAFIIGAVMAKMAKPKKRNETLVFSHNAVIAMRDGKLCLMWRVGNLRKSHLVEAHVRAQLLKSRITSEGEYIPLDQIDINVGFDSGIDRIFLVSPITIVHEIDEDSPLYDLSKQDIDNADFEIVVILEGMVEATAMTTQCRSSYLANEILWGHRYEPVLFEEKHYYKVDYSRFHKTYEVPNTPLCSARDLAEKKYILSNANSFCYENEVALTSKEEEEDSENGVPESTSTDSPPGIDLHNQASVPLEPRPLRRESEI
# CHT inh – inhibitors of human choline transporter CHT. High affinity choline transporter 1 (Homo sapiens), Q9GZV3. CHT-expressing cells, membrane potential dye, choline response; active compounds read low. B-score at 10 µM. hit rate 0.86% among 310,000;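 active means B-score over 3 SD under the library average, and starting fluorescence ratio not unusually high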;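 further: choline stimulus applied at its EC90 after an EC20 pre-addition; B-score computed on integrated fluorescence ratio after choline addition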
# Target sequence (Q9GZV3 whole entry, looked up): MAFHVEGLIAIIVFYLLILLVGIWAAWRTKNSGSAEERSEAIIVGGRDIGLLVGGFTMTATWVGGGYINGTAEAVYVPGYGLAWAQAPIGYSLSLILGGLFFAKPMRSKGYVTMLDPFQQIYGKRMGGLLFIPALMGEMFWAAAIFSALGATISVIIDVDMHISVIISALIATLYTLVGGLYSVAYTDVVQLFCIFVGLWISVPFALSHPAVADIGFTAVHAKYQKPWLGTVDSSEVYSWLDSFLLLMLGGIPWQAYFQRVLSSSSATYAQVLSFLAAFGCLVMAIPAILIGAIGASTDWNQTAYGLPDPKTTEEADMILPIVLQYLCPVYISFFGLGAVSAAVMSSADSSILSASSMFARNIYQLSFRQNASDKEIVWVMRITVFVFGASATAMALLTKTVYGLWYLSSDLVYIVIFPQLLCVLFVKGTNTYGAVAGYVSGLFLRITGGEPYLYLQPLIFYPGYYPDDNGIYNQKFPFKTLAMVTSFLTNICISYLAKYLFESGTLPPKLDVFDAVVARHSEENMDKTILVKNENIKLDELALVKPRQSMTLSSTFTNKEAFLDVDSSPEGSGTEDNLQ
# * hit, by the source's call; i = inactive.
smiles,Kir21 block,CHT inh
CC(C)N1CCN(Cc2ccc(-c3ccccc3Cl)o2)CC1CCO (centres undefined),1.3,i
O=C(CSCc1c(F)cccc1Cl)NNC(=S)NC1CCCCC1,0.72,i
S=C(NCCN1CCOCC1)Nc1cccc2ccccc12,0.3,i
O=C(NC1CCCN(CCc2ccccc2)C1)c1c[nH]c2ccccc12 (centres undefined),-0.58,i
C/C(=N\NC(=O)CCc1c[nH]c2ccccc12)c1ccc([N+](=O)[O-])cc1,0.63,i
COC(=O)c1ccc(Nc2ccc3nonc3c2[N+](=O)[O-])cc1,-2.3,i
CN(C)CC(C)(C)CNS(=O)(=O)c1ccc(Cl)cc1,1.6,i
CCc1noc(C)c1C(=O)N1CCN(S(=O)(=O)c2ccc(Br)cc2)CC1,-2.3,i
CCC(=O)Nc1c2c(nn1-c1cccc(Cl)c1)CSC2,-2.1,i
COCCN1C(=O)/C(=C/c2ccc(N3CCCC3)cc2)SC1=S,0.12,i
COc1ccc(-c2cn(-c3cccc(C)c3)c(=O)[nH]2)cc1OC,-0.57,i
Cc1cc(NC(=O)CSc2nnc3ccc(-c4ccc(F)cc4)nn23)no1,2,i
COc1ccc(NS(=O)(=O)c2ccc(O)c(NC(=O)c3ccc(S(=O)(=O)N4CCCC4)cc3)c2)cc1,-0.79,i
Brc1ccc(C=Nc2ccc(Nc3ccccc3)cc2)s1,1.4,i
O=S(=O)(c1ccccc1)N1CCN(c2ncnc3scc(-c4ccccc4)c23)CC1,-1.8,i
O=C(NCCO)/C(=C/c1ccc(Br)cc1)NC(=O)c1cccs1,-1.4,i
O=C(NCCc1ccc(Cl)cc1)c1n[nH]c2ccccc12,0.78,i
Cc1[nH]c2ccccc2c1C(=O)CN1CCCCC1CCO (centres undefined),-1.3,i
COc1ccc(CN2CCCC(C(=O)c3ccc(SC)cc3)C2)cc1Cn1cccn1 (centres undefined),-1.8,i
COc1cc(NC(=O)CCN2CCOCC2)cc(OC)c1,-1.1,i
COc1cc(OC)cc(C(=O)/C=C2\Sc3ccccc3N2C)c1,1.5,i
C=CCn1c(-c2ccc3[nH]c(C)c(C)c3c2)n[nH]c1=S,-0.97,i
O=S(=O)(NCC(c1ccccc1)N1CCNCC1)c1ccc(Cl)cc1 (centres undefined),-0.2,i
CCN1CCN(CC(=O)Nc2sc3c(c2C#N)CCC(C)C3)CC1 (centres undefined),-0.99,i
O=C1CCCc2c1nc(-c1ccco1)n2O,0.38,i
N#C/C(=C\c1cccc2ccccc12)c1nn(-c2ccccc2)c(N)c1C#N,0.06,i
CCC1(C)Cc2sc3c(=O)[nH]c(=S)[nH]c3c2CO1 (centres undefined),0.99,i
Cc1cc(C(=O)N/N=C/c2ccccc2[N+](=O)[O-])c(C)o1,1.7,i
N#CCSc1n[nH]c2nc3c(c(=O)n12)C1(CCCCC1)Cc1ccccc1-3,0.64,i
COc1cccc(CNc2nc3ccccc3n2C)c1O,0.42,i

# Carrying on:
smiles,Kir21 block,CHT inh
Cn1cnnc1Sc1nc([N+](=O)[O-])nn1C,-0.41,i
CN(C(=O)c1c(Cl)cnn1C)C12CC3CC(CC(C3)C1)C2,0.36,i
COc1ccc(NC(=O)Cc2ccsc2)c(OC)c1,0.56,i
Cc1cccn2c(=O)c(C(=O)NC3CCCCC3C)c(O)nc12 (centres undefined),-0.27,i
Cc1ccc(S(=O)(=O)N2C(=O)CCC2C(=O)Nc2ccc3c(c2)OCCO3)cc1 (centres undefined),0.79,i
CCOC(=O)c1[nH]nc(N)c1NC(=O)c1ccc(Cl)cc1Cl,0.07,i
COC(=O)c1cc(NC2c3ncccc3C(=O)N2Cc2ccccc2)cc(C(=O)OC)c1 (centres undefined),0.7,i
CCOc1cc(/C=C2/C(=N)N3C(=NC2=O)SN=C3S(=O)(=O)C(C)C)ccc1OC(=O)c1ccco1,-0.69,i
c1ccc2c(c1)[nH]c1c(N3CCOCC3)ncnc12,1.6,i
Cc1ccc(-n2ccnc(SCC(=O)NC3CCCC3)c2=O)cc1F,0.1,i
Cc1c(C(=O)N2CCN(CCc3ccccn3)CC2)oc2ccc(Cl)cc12,1.1,i
Cc1cnc(NC(=O)C2CCCO2)s1 (centres undefined),0.73,i
CC(C(=O)OCC(=O)c1ccc([N+](=O)[O-])cc1)N1C(=O)C2C3C=CC(C3)C2C1=O (centres undefined),2,i
COC(=O)c1ccc(CNC(=O)CSc2nc3sc(C)c(C)c3c(=O)n2C)o1,-0.03,i
Cc1[nH][nH]c(=O)c1C(c1ccc(F)cc1)c1c(C)[nH][nH]c1=O,2.6,i
O=C(c1sc2cc(F)ccc2c1Cl)N1CCN(c2ccccc2)CC1,1.5,i
O=C(CCSCCC(=O)Nc1ccccc1F)Nc1ccccc1F,1,i
Cc1ccn2c(NCc3ccccc3)c(-c3cccs3)nc2c1,0.57,i
CCCn1c2ccccc2c2nnc(SC(CC)C(=O)Nc3sc4c(c3C#N)CCCC4)nc21 (centres undefined),0.01,i
COc1cccc(CNC(=O)CCNS(=O)(=O)c2cccc3nsnc23)c1,-0.78,i
O=C(NNC(=O)C(c1ccccc1)c1ccccc1)c1cccs1,-0.58,i
CCCc1nnc(SCC(=O)Nc2ccccc2F)o1,0.39,i
O=C(CCNC(=O)C1CCN(S(=O)(=O)c2ccccc2)CC1)NCc1cccc(Cl)c1,-0.78,i
O=S(=O)(NC1CCCC1)c1ccc(S(=O)(=O)N2CCCN(Cc3ccccc3)C2)cc1,-2.7,i
O=C(CSc1nc2ccccc2c(=O)n1-c1ccccc1)N1CCC1,0.05,i
CC(C)CCNC(=O)c1c[nH]c2ccc(S(=O)(=O)N3CCOCC3)cc2c1=O,-0.75,i
CCOc1ccc(NC(=O)C2CCN(S(=O)(=O)c3cccs3)CC2)cc1,-1.2,i
CC(=O)N1C(=O)N(C)C2C1N(C(C)=O)C(=O)N2C (centres undefined),-0.05,i
CCOC(=O)c1cc(CC)sc1NC(=O)c1cc(OCC)c(OCC)c(OCC)c1,-0.19,i
CCCCNC(=O)CCC(=O)Nc1ccc2nc(N3CCCCC3)cc(C)c2c1,-0.19,i

# Grouped by structure, the entries above with bromine.
smiles,Kir21 block,CHT inh
CCc1noc(C)c1C(=O)N1CCN(S(=O)(=O)c2ccc(Br)cc2)CC1,-2.3,i
Brc1ccc(C=Nc2ccc(Nc3ccccc3)cc2)s1,1.4,i
O=C(NCCO)/C(=C/c1ccc(Br)cc1)NC(=O)c1cccs1,-1.4,i

# (further entries)
smiles,Kir21 block,CHT inh
CC(=O)Nc1ccc(NC(=O)c2nccnc2C(=O)O)cn1,-1.8,i
COc1ccc(-n2nc(C(=O)NCC(=O)N3CCN(c4ccccn4)CC3)c3ccccc3c2=O)cc1Cl,-0.73,i
COCCCNC(=O)C1CC(=O)N(c2ccc(C)cc2)C1 (centres undefined),-0.06,i
CCCC(=O)Nc1ccc(Br)cn1,-0.81,i
CCCOc1ccc(CC(CC(=O)O)(C(=O)O)C(=O)O)cc1,-0.08,i
COC(=O)c1ccc(S(=O)(=O)NCCSc2nnc3c4ccccc4n(C)c3n2)cc1,-0.02,i
CC(=O)c1ccc(N/C=C/C(=O)c2ccc(Br)cc2)cc1,0.91,i
Cc1cc2cc(CN(Cc3cccs3)S(=O)(=O)c3ccc4c(c3)OCCO4)c(=O)[nH]c2cc1C,1.3,i
C/C(N)=C(/C#N)C(=O)COC(=O)Cc1coc2cc(C)ccc12,1.2,i
CCN(CC)c1ccc(C=C2C(=O)OC(C)(C(C)(C)C)OC2=O)cc1 (centres undefined),-1.9,i
NC(=O)Cc1ccc(C(=O)c2ccc(Cl)cc2)s1,1.7,i
CSc1cccc(CN2CCC(CCC(=O)NC3CC3)CC2)c1,-0.51,i
COc1ccc(S(=O)CC(=O)Nc2ccccc2Cl)cc1 (centres undefined),-0.31,i
COc1cc(CN2CCC(C(=O)N3CCCC(C)C3)CC2)cc(Br)c1O (centres undefined),1.2,i
O=C(NCC1CCCN1S(=O)(=O)c1cccs1)c1ccccc1 (centres undefined),-0.57,i
Cc1ccc(NC(=O)CS(=O)CC(=O)Nc2cccc(C)c2C)cc1F (centres undefined),0.5,i
CCOC(=O)c1ccc(NCc2nc3ccccc3[nH]2)cc1,-0.97,i
COc1cccc(CN2CCCC(N3CCc4ccccc4C3)C2)c1O (centres undefined),0.55,i
COCCNC(=O)/C(C#N)=C\c1ccc(CNC(=O)C(=O)Nc2ccc(C)c(C)c2)o1,-0.3,i
CCCCc1cc(=O)oc2c(CN3CCCC3)c(O)c(Cl)cc12,-0.11,i
CC(C)C(NC(=O)C1CCC(C(C)(C)C)CC1)C(=O)NCc1cccnc1 (centres undefined),0.03,i
Cn1c(=O)n(Cc2ccc(F)cc2)c(=O)c2c1nc1n2CCCN1C1CCCCC1,0.76,i
O=C1CCN(C(=O)Nc2cccc(Cl)c2)N1,-0.05,i
Cc1ccc(-c2nc3ccccn3c2NC(=O)c2ccco2)cc1,-0.55,i
COc1ccc(N2CCN(CC(=O)Nc3nnc(-c4ccccc4)s3)CC2)cc1,-0.43,i
O=C(CCC(=O)c1cccs1)NCCc1ccc(F)cc1,1.1,i
O=C(CC(NS(=O)(=O)c1ccc(Cl)cc1)c1ccco1)NCc1cccnc1 (centres undefined),0.2,i
CCOc1ccc(Cl)cc1S(=O)(=O)N1CCC(C(=O)NCc2ccccn2)CC1,-0.46,i
COC(=O)C1=C(COc2ccc(F)cc2)NC(=O)NC1c1ccc(C)cc1C (centres undefined),-0.71,i
CCCCCCCCCCCCOC(=O)C[N+](C)(C)C,-0.34,i

# 5 entries drawn at random from the list so far:
smiles,Kir21 block,CHT inh
Cc1cc2cc(CN(Cc3cccs3)S(=O)(=O)c3ccc4c(c3)OCCO4)c(=O)[nH]c2cc1C,1.3,i
COc1cc(CN2CCC(C(=O)N3CCCC(C)C3)CC2)cc(Br)c1O (centres undefined),1.2,i
O=C(NC1CCCN(CCc2ccccc2)C1)c1c[nH]c2ccccc12 (centres undefined),-0.58,i
CCN1CCN(CC(=O)Nc2sc3c(c2C#N)CCC(C)C3)CC1 (centres undefined),-0.99,i
Brc1ccc(C=Nc2ccc(Nc3ccccc3)cc2)s1,1.4,i

# Further results
smiles,Kir21 block,CHT inh
CCN(CC(=O)Nc1c(F)cccc1F)C(=O)c1cc2c(cc1Cl)N1CCCCCC1=NS2(=O)=O,1.9,i
Cc1ccc(CSc2ncnc3c2cnn3Cc2ccccc2)cc1,0.42,i
C(=N\Nc1nc(N2CCOCC2)nc(N2CCOCC2)n1)/c1ccncc1,0.02,i
CCCC(=O)Nc1ccc(-c2csc(N/N=C\c3ccncc3)n2)cc1,0.78,i
O=C(COc1ccccc1)Nc1ccc(Cl)cc1Cl,1.9,i
S=c1[nH]nc(-c2cccnc2)n1/N=C/C=C/c1ccccc1,2,i
O=C(CSc1ccccc1)Nc1ccc(S(=O)(=O)Nc2ncccn2)cc1,0.32,i
Cc1c(-c2nc(N)nc(Nc3ccccc3)n2)oc2ccccc12,0.03,i
Cc1cccc(-c2nsc(SCC(=O)NCC3CCCO3)n2)c1 (centres undefined),-0.4,i
O=C(NCCc1ccccc1)c1ccc(-n2cnnn2)cc1,1.9,i
O=C1CSCN1c1cc(Cl)ccc1Cl,-0.69,i
Cc1ccc2cc(CCNC(=O)Cc3cccs3)c(=O)[nH]c2c1,0.01,i
COC(=O)c1ccccc1NC(=O)/C=C/c1cc(OC)c(OC)c(OC)c1,0.54,i
Cc1cccc(C(=O)O/N=C(\c2ccccc2)c2cccnc2)c1,0.28,i
Cc1cc(N2CCOCC2)nc2ccc(NC(=S)N3CCCCC3C)cc12 (centres undefined),0.03,i
CN(C(=S)NC(=O)c1ccc(F)cc1)C1CCCCC1,0.26,i
CCCCc1c(C)nc2ccccc2c1SCCC(=O)O,0.11,i
CCN(C(=O)COC(=O)c1cc(-c2ccc3cc(OC)ccc3c2)nc2ccccc12)C1CCS(=O)(=O)C1 (centres undefined),-0.12,i
O=C(NC1CC1)C1CCN(C(=O)c2ccc(Cl)cc2)CC1,1.2,i
Cc1[nH]nc2c1C(c1ccsc1C)C(C#N)=C(N)O2 (centres undefined),0.86,i
COc1ccc(C(=O)Nc2nc(N)n(-c3ccccc3)n2)cc1OC,-2.3,i
COc1ccc(-c2ccc(=O)n(CC(=O)Nc3nnc(C(C)C)s3)n2)cc1OC,0.53,i
COc1ccc(S(=O)(=O)Nc2ccccc2C(=O)NCc2cccnc2)cc1,-0.01,i
CCOC(=O)C1CCCN(C(=O)c2cc(Cl)ccc2Cl)C1 (centres undefined),-0.73,i
COC(=O)C(N)Cc1ccc(OC)c([N+](=O)[O-])c1 (centres undefined),0.95,i
CCN(Cc1ccccc1)S(=O)(=O)CCNC(=O)c1ccccc1,-0.69,i
CCOC(=O)C1CCN(Cc2cnc(NC(=O)OC)s2)CC1,1.3,i
COC(=O)c1ccc(C(=O)OC)c(NC(=O)CN2CCC(C)CC2)c1,0.86,i
O=S(=O)(/N=C(\[O-])C[n+]1ccccc1)c1ccc(Cl)cc1,-1.4,i
CCOC(=O)N1CCN(C(=O)C(=O)Nc2ccc3nc4n(c(=O)c3c2)CCCCC4)CC1,1.8,i
c1ccc(-c2nnc(CSc3ccc4c(c3)OCCO4)o2)cc1,0.68,i
Clc1ccccc1-c1ncnc2ccc(Br)cc12,-3.1,i

# An excerpt; most or all hits stand in other tables.
